TRPV1 potentiator: HTS Assay for Compounds that Act as Potentiators of the Vanilloid Receptor 1 | TRPV1-expressing cells, Fluo-8 calcium influx, capsaicin EC20 potentiation; host cell line not named in the record; control for the full effect not named in the record | hit rate 0.02% among 320,000 | potentiation, % at 8.33 µM | Transient receptor potential cation channel subfamily V member 1 (Homo sapiens), Q8NER1; active means potentiation above 80%; inconclusive means 30% to 80%; inactive means below 30%; further: 0% is about no effect
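TRPV1-expressing cells were cultured overnight at 35.5C and loaded with Fluo-8 calcium dye for 40 to 90 min at room temperature. After a 10 s baseline, compound was added and calcium influx was read kinetically for 3 min (ex 480/em 520 nm).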
D2 potentiator: Beta-Arrestin HTS for Positive Allosteric Modulators of the Human D2 Dopamine Receptor: Potentiators; AID 624464, 2012; hit rate 0.23% among 360,000; D(2) dopamine receptor (Homo sapiens), P14416; potentiation, % (no concentration beside the values); DiscoveRx D2 beta-arrestin cells, luminescence, 90 min; 100% = 57 uM dopamine signal; active = potentiation of 50% or more; inconclusive = 30% to 50%; inactive = 30% or less;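 further: compound concentration not given in the record; tested on top of an EC20 dose of dopamine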
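D2 cells co-treated with compound plus 50 nM dopamine (EC20) for 90 min at 37 deg C to detect potentiation. Beta-arrestin recruitment was read as enzyme-fragment luminescence after 1 h at ambient temperature. Full response was set by 57 uM dopamine.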
CtBP-E1A blk: qHTS Assay for Inhibitors of the CtBP/E1A Interaction. CtBP / adenovirus E1A interaction (AlphaScreen). AlphaScreen GST-E1A/His-CtBP binding, 1536-well; hits give low values; control for the full effect not named in the record. activity change, % (concentration not given with the values). hit rate 0.49% among 340,000; in the data active means activity change below about -65%; inconclusive means about -30% to -65%; inactive means above about -30%; further: on the % scale 0 is the no-effect control and ±100 the full control effect
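Homogeneous bead-based format: GST-tagged E1A captured on glutathione donor beads, His-tagged CtBP on nickel acceptor beads; compounds precede bead addition by 2 h at 37 °C.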
PINK1 modulator: A Quantitative High throughput Screen to Identify Chemical Modulators of PINK1 Expression; PINK1 immunofluorescence, high-content cytometry, 24 h; Potency, µM (doses to about 76.6 µM), for the others: at the top dose activation (PINK1 increase), most hits filed as activators; hit rate 0.2% among 410,000; active = well fitted activation curve with a large enough effect; inconclusive = small, poorly fitted or top-dose-only effect; inactive = flat fitted curve, though single readings scatter; cell line not stated here;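 further: potency means the concentration at half of the fitted maximal effect; % of control where 0% means no effect; nearly all actives have a fitted effect of over 65% in size; a mitochondrial uncoupler was the plate control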
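Readout is PINK1 immunofluorescence, quantified alongside mitochondrial, cell and nuclear markers by laser-scanning microplate cytometry. Cells from a stable line were exposed to compound titrations (5 concentrations) for 24 hours, with CCCP controls.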
D2 ag: Beta-Arrestin HTS for Positive Allosteric Modulators of the Human D2 Dopamine Receptor: Agonists. D(2) dopamine receptor (Homo sapiens), P14416. DiscoveRx PathHunter D2 beta-arrestin, luminescence, 90 min; 100% = 57 uM dopamine signal. activation, % (concentration not given with the values). hit rate 0.084% among 360,000; in the data active = activation above about 40%; inconclusive = about 15% to 40%; inactive = below about 15%; further: compound concentration not given in the record; the text of the record calls up to 30% inactive
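Agonist mode: compounds alone added to overnight-plated D2 PathHunter cells for 90 min at 37 C, with 57 uM final dopamine (EC100) defining full response. Beta-arrestin recruitment detected by chemiluminescent reagent, read after 1 h at ambient temperature.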
Six1-Eya2 blk: qHTS Assay for Inhibitors of the Six1/Eya2 Interaction. Homeobox protein SIX1 (Homo sapiens) + Protein phosphatase EYA2 (Homo sapiens), …. hit rate 0.56% among 360,000. activity change, % (no concentration beside the values). AlphaScreen GST-Six1/His-Eya2 binding, biochemical; hits give low values; control for the full effect not named in the record; in the data active = activity change below about -65%; inconclusive = about -30% to -65%; inactive = above about -30%; further: on the % scale 0 is the no-effect control and ±100 the full control effect; compound concentration not given in the record
Target sequence (O00167 whole entry, looked up): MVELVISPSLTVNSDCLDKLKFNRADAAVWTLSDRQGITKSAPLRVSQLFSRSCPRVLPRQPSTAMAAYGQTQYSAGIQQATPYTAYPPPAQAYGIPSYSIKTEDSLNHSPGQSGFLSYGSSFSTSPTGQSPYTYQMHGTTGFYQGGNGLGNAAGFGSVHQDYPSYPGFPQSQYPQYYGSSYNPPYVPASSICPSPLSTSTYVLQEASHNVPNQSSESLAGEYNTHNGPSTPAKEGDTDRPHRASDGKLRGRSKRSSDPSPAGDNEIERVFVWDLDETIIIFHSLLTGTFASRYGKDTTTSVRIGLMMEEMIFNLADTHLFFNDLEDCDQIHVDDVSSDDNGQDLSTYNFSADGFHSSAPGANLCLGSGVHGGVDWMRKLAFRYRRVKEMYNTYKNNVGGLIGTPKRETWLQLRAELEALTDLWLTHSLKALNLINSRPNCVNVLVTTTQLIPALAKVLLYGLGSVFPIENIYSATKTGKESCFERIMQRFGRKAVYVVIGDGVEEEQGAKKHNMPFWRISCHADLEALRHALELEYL
Target sequence (Q15475 whole entry, looked up): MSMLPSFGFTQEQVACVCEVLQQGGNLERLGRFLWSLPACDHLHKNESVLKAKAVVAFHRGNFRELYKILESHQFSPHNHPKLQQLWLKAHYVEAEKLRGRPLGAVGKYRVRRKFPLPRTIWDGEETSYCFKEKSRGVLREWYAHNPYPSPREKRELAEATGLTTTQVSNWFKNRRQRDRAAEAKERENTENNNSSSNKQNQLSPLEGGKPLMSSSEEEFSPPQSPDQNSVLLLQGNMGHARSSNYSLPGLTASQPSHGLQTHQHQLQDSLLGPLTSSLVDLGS
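GST-Six1 + His-Eya2 (5X stock: 250/500 nM); Tris pH 8.0, 300 mM NaCl, 0.05% BSA, 0.02% Tween 20; GSH donor/Ni acceptor beads; 1 h 37 °C dark; AlphaScreen readout.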
Sfp inh: qHTS Assay for Inhibitors of Bacillus subtilis Sfp phosphopantetheinyl transferase (PPTase) | AID 1490, 2009 | Potency, µM, without a hit: max response, negative = inhibition, usual class: inhibitors | hit rate 3.5% among 310,000 | 4'-phosphopantetheinyl transferase ffp (Bacillus subtilis), Q9F4F7 | Biochemical Sfp PPTase activity, qHTS; active means well fitted inhibition curve with a large enough effect; inconclusive means small, poorly fitted or top-dose-only effect, or another doubt; inactive means no such curve, though single readings can be large or run the other way;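 further: the enzyme is Sfp with the accession as filed and its product quenches rhodamine fluorescence; potency means the concentration at half of the fitted maximal effect; 0% = enzyme reaction without inhibitor and -100% = no enzyme wells; top concentration of the series not given in the record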
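Reaction rates are the 30-min fluorescence difference (ex 525, em 598 nm) in wells containing 15 nM Sfp, 5 uM rhodamine-CoA and 12.5 uM BHQ-2-YbbR at pH 7.6 with 10 mM MgCl2.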
The depositor's hits bear a star; [ ] = another dose, or the depositor's remark.

Screening COc1cc2[nH]c(=O)n(Cc3ccc(C(=O)NC4CCN(Cc5ccccc5)CC4)cc3)c(=O)c2cc1OC returned TRPV1 potentiator 2.3, D2 potentiator -29.7, PINK1 modulator 16.0%, D2 ag -5.1, Six1-Eya2 blk -7.5 and Sfp inh 7.2%.
Cc1ccc(Nc2nc(N)nc(CN3CCN(c4ccccc4)CC3)n2)cc1Cl was read as TRPV1 potentiator -9.3, D2 potentiator 101.9*, CtBP-E1A blk -16.0, PINK1 modulator -4.4%, D2 ag inconclusive, Six1-Eya2 blk -17.6 and Sfp inh 3.2%.
For Cc1cc(C(=O)NNC(=O)c2ccccc2F)c2ccccc2n1 the results were TRPV1 potentiator 2.5, D2 potentiator -8.5, CtBP-E1A blk -1.1, PINK1 modulator -1.3%, D2 ag -2.9 and Six1-Eya2 blk 8.3.
O=C(CCN1C(=O)c2ccccc2S1(=O)=O)Nc1cc(Cl)ccc1Cl was read as TRPV1 potentiator -2.2, D2 potentiator 24.8, CtBP-E1A blk -1.7, PINK1 modulator 2.4%, D2 ag -1.0 and Six1-Eya2 blk 2.1.
CN(C)S(=O)(=O)c1cccc(NC(=O)c2cncc(Br)c2)c1 was read as TRPV1 potentiator -4.7, D2 potentiator -17.5, CtBP-E1A blk -11.8, PINK1 modulator 1.9%, D2 ag -2.4, Six1-Eya2 blk 3.0 and Sfp inh inconclusive.
Screening COc1ccc(CN=Cc2c(C(F)(F)F)[nH][nH]c2=O)cc1 returned TRPV1 potentiator 6.5, D2 potentiator -23.9, CtBP-E1A blk 3.3, PINK1 modulator -1.4%, D2 ag -2.2, Six1-Eya2 blk 0.3 and Sfp inh 14.4%.
O=C(/C=C/C(=O)NCc1cccs1)NCc1cccs1 was read as TRPV1 potentiator -2.4, D2 potentiator -9.1, CtBP-E1A blk -9.8, PINK1 modulator 3.6%, D2 ag 6.0, Six1-Eya2 blk 12.6 and Sfp inh -0.1%.
Screening COCCCNC(=O)CN(c1cccc(Cl)c1C)S(C)(=O)=O returned TRPV1 potentiator -2.7, D2 potentiator -18.1, CtBP-E1A blk -0.9, PINK1 modulator 4.1%[38.3 µM], D2 ag -2.7, Six1-Eya2 blk 22.9 and Sfp inh 20.7%.
Screening Cc1cn(C2CC(OC(=O)C(C)C)C(CO)O2)c(=O)[nH]c1=O (stereo not given) returned TRPV1 potentiator 5.2, D2 potentiator 0.0, CtBP-E1A blk 4.3, PINK1 modulator 1.3%, D2 ag 8.9 and Six1-Eya2 blk 2.6.
Screening COc1cc(-c2noc(C)c2C#Cc2nccn2C)cc(OC)c1OC returned TRPV1 potentiator -14.2, D2 potentiator 8.0, CtBP-E1A blk -15.7, PINK1 modulator 5.5%, D2 ag 1.1, Six1-Eya2 blk -6.5 and Sfp inh 8.8%.
Screening Cc1ccc(NC(=O)NC(=S)NC(=O)c2ccccc2)cc1 returned TRPV1 potentiator 5.7, D2 potentiator -21.4, CtBP-E1A blk -11.1, PINK1 modulator 3.9%, D2 ag -3.8, Six1-Eya2 blk 7.8 and Sfp inh -10.6%.
`Cc1ccc(SCC(=O)NC(=O)Nc2ccc3c(c2)OCCO3)cc1C` gave TRPV1 potentiator 8.8, D2 potentiator 3.4, CtBP-E1A blk -11.1, PINK1 modulator 5.4%, D2 ag -1.5, Six1-Eya2 blk 7.1 and Sfp inh -0.7%.

2 compounds picked at random from those above:
Cc1ccc(Nc2nc(N)nc(CN3CCN(c4ccccc4)CC3)n2)cc1Cl was read as TRPV1 potentiator -9.3, D2 potentiator 101.9*, CtBP-E1A blk -16.0, PINK1 modulator -4.4%, D2 ag inconclusive, Six1-Eya2 blk -17.6 and Sfp inh 3.2%.
For Cc1cc(C(=O)NNC(=O)c2ccccc2F)c2ccccc2n1 the results were TRPV1 potentiator 2.5, D2 potentiator -8.5, CtBP-E1A blk -1.1, PINK1 modulator -1.3%, D2 ag -2.9 and Six1-Eya2 blk 8.3.

Further records
`C[C@H]1[C@H](C)CC[C@]2(C(=O)O)CC[C@]3(C)C(=CC[C@@H]4[C@@]5(C)CC[C@H](O)C(C)(C)[C@@H]5CC[C@]43C)[C@H]12` gave TRPV1 potentiator 25.7, D2 potentiator -10.3, CtBP-E1A blk 1.4, PINK1 modulator 4.1%, D2 ag -4.5, Six1-Eya2 blk 1.2 and Sfp inh 25.8%.
N#CC1(NC(=O)Cn2cc(C(F)(F)F)ccc2=O)CCCC1 was read as TRPV1 potentiator 2.3, D2 potentiator -7.3, CtBP-E1A blk -1.5, PINK1 modulator -0.6%, D2 ag -5.7 and Six1-Eya2 blk -3.0.
CCOC(=O)Cn1c(=NC(=O)c2ccc([N+](=O)[O-])s2)sc2ccccc21 was read as TRPV1 potentiator -6.2, D2 potentiator 19.2, CtBP-E1A blk -0.4, PINK1 modulator 25.1µM*, D2 ag 4.4, Six1-Eya2 blk 0.7 and Sfp inh 9.7%.
Screening N#C/C(=C/C1=C(N2CCOCC2)C(=C/c2ccccc2)/CC1)C(=O)Nc1ccccc1F returned D2 potentiator -5.2, CtBP-E1A blk -22.7, PINK1 modulator -2.5%, D2 ag -1.1 and Six1-Eya2 blk -17.9.
O=C(C1CC(=O)N(c2ccccc2)C1)N1CCN(c2ccccc2F)CC1 (stereo not given) was read as TRPV1 potentiator -1.2, D2 potentiator -0.1, CtBP-E1A blk 4.8, PINK1 modulator -0.2%, D2 ag 3.9, Six1-Eya2 blk 0.1 and Sfp inh 9.6%.
For O=C(CSc1n[nH]c(-c2ccccn2)n1)Nc1ccc(F)cc1 the results were TRPV1 potentiator 8.5, D2 potentiator -4.3, CtBP-E1A blk -94.8*, PINK1 modulator -1.3%, D2 ag 0.4, Six1-Eya2 blk inconclusive and Sfp inh -23.9%.
Cc1ccc2nc(NCC(=O)O)nc(-c3ccccc3)c2c1 was read as TRPV1 potentiator -1.4, D2 potentiator 2.3, CtBP-E1A blk 11.9, PINK1 modulator 1.1%, D2 ag -0.2, Six1-Eya2 blk 11.5 and Sfp inh 23.2%.
Screening CCn1c(SCC(=O)c2ccccc2)nnc1-c1cnccn1 returned TRPV1 potentiator 7.2, D2 potentiator -1.3, CtBP-E1A blk 0.5, PINK1 modulator -6.4%[38.3 µM], D2 ag 1.1, Six1-Eya2 blk 2.0 and Sfp inh 2.6%.
Cc1nnc(NC(=O)CN2C(=O)c3ccccc3S2(=O)=O)s1 was read as TRPV1 potentiator 9.5, D2 potentiator -1.8, CtBP-E1A blk 4.5, PINK1 modulator 2.0%, D2 ag 0.1, Six1-Eya2 blk 2.3 and Sfp inh -28.4%.
`CC(C)(CCO)Nc1ncnc2onc(-c3ccc(F)cc3)c12` gave TRPV1 potentiator 5.6, D2 potentiator -3.3, CtBP-E1A blk -14.6, PINK1 modulator 2.0%, D2 ag -2.3, Six1-Eya2 blk 0.8 and Sfp inh 3.0%.
`NS(=O)(=O)c1ccc(NC(=O)CSc2nc(Nc3ccccc3)nc(N3CCOCC3)n2)cc1` gave TRPV1 potentiator 5.7, D2 potentiator -9.8, CtBP-E1A blk 4.2, PINK1 modulator -2.7%, D2 ag 1.4, Six1-Eya2 blk -7.3 and Sfp inh 6.9%.
For O=C(c1cc(COc2ccc(F)cc2F)on1)N1CC[C@@H]2CCCC[C@H]2C1 the results were TRPV1 potentiator -15.8, D2 potentiator 63.6*, CtBP-E1A blk 2.4, PINK1 modulator -0.5%, D2 ag -4.2, Six1-Eya2 blk 12.3 and Sfp inh -9.5%.
Screening COC(C[C@H](O)C[C@@H](O)[C@@H](C)OCc1ccccc1)OC returned TRPV1 potentiator inconclusive, D2 potentiator -21.1, CtBP-E1A blk -2.2, PINK1 modulator 3.3%, D2 ag -1.6, Six1-Eya2 blk 1.0 and Sfp inh 9.4%.
Screening CC(=O)Oc1ccccc1Cn1c(C)c(C(=O)NCCC#N)sc1=O returned D2 potentiator -2.9, CtBP-E1A blk -14.9, PINK1 modulator 0.0%, D2 ag 2.7 and Six1-Eya2 blk 0.1.
Screening Cc1ccccc1CS(=O)(=O)CC(O)CN1CCCC1=O (stereo not given) returned TRPV1 potentiator -2.5, D2 potentiator -2.0, CtBP-E1A blk 1.9, PINK1 modulator 2.7%, D2 ag -0.6, Six1-Eya2 blk -1.1 and Sfp inh 8.9%.
`Cc1c(CCOC(=O)C23CC4CC(CC(C4)C2)C3)sc[n+]1Cc1ccccc1` gave TRPV1 potentiator -1.0, D2 potentiator -8.6, CtBP-E1A blk 11.5, PINK1 modulator -0.9%, D2 ag -5.0, Six1-Eya2 blk 7.2 and Sfp inh 5.0%.
`COc1cc(Cl)c(C)cc1NC(=O)CSc1ccc(NC(C)=O)cc1` gave TRPV1 potentiator 8.6, D2 potentiator 1.4, CtBP-E1A blk 2.0, PINK1 modulator 3.3%, D2 ag 1.6, Six1-Eya2 blk -0.9 and Sfp inh 6.4%.
`COc1ccc(CNC(=O)C2CCCN2CCc2ccccc2)cc1OC` (stereo not given) gave TRPV1 potentiator -4.1, D2 potentiator 12.3, CtBP-E1A blk -15.2, PINK1 modulator 1.0%, D2 ag 2.9, Six1-Eya2 blk -0.1 and Sfp inh 22.6%.
CC(C)(C)C(=O)/C=C(\N)c1ccccn1 was read as TRPV1 potentiator -1.7, D2 potentiator -5.3, CtBP-E1A blk -9.2, PINK1 modulator -1.3%, D2 ag 0.5, Six1-Eya2 blk -8.4 and Sfp inh -2.7%.
For COc1cccc(OCc2nnc(SCC(=O)NNC(=O)C3CCCCC3)n2C)c1 the results were TRPV1 potentiator 8.2, D2 potentiator -0.6, CtBP-E1A blk -3.0, PINK1 modulator 0.8%, D2 ag -4.9, Six1-Eya2 blk 5.8 and Sfp inh 10.8%.
Screening CC(C)(C)NS(=O)(=O)c1cc(C(=O)Nc2sccc2C#N)ccc1Cl returned TRPV1 potentiator 9.2, D2 potentiator -5.5, CtBP-E1A blk -27.5, PINK1 modulator inconclusive, D2 ag -1.4, Six1-Eya2 blk inconclusive and Sfp inh -32.1%.

Compounds were not picked by outcome. About 3.7% of those tested had a hit in this group.
